A1 apoptosis 2 – compounds inhibiting A1, read as caspase activation; 24,000 tested, under 10 active; AID 2465; caspase activation, % (no concentration beside the values); MEF A1-2A-BIM cells, caspase-Glo luminescence, 3 h; percent of clofoctol response, DMSO zero; in the data active means caspase activation above about 5.9%;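 further: wells of about 30 µL received 50 nL stock; the first replicate is given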
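System: mouse embryonic fibroblasts co-expressing A1 and BIM (A1-2A-BIM), primed for A1 dependence; amount: 2500 cells/well; doses: 50 nL pinned compound; schedule: cells settled overnight, compound exposure 3 h at 37 °C, 5% CO2; detection: Caspase-Glo 3/7 luminescence, 1 h at room temperature; read-out: Caspase-3/7 activation, seen as rise in luminescence signal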
The depositor's hits bear a star.

COc1ccc(S(=O)(=O)N(C)C[C@@H]2OCCCC[C@H](C)Oc3ccc(NC(=O)Nc4ccc(C(F)(F)F)cc4)cc3C(=O)N([C@@H](C)CO)C[C@@H]2C)cc1
  A1 apoptosis 2: -1.2

C[C@@H]1CN([C@@H](C)CO)C(=O)c2cccc(NC(=O)Nc3ccc(F)cc3)c2O[C@H]1CN(C)S(=O)(=O)c1ccc(Cl)cc1
  A1 apoptosis 2: -0.2

C[C@@H]1CCCCO[C@@H](CN(C)C(=O)Cc2ccccc2)[C@@H](C)CN([C@H](C)CO)C(=O)c2cc(NC(=O)c3ccncc3)ccc2O1
  A1 apoptosis 2: -0.8

C[C@@H]1CN([C@H](C)CO)C(=O)c2cc(NS(=O)(=O)c3cn(C)cn3)ccc2O[C@@H](C)CCCCO[C@H]1CN(C)C(=O)Nc1ccccc1
  A1 apoptosis 2: -1.0

CC(C)NC(=O)N(C)C[C@H]1Oc2c(cccc2N(C)C)C(=O)N([C@@H](C)CO)C[C@@H]1C
  A1 apoptosis 2: -0.4

CC(C)NC(=O)Nc1ccc2c(c1)C(=O)N([C@H](C)CO)C[C@H](C)[C@@H](CN(C)Cc1ccc(C(=O)O)cc1)OCCCC[C@H](C)O2
  A1 apoptosis 2: 0.7

C[C@@H]1CN([C@H](C)CO)C(=O)c2cc(NS(=O)(=O)c3ccc(F)cc3)ccc2O[C@@H]1CN(C)C(=O)Nc1ccc2c(c1)OCO2
  A1 apoptosis 2: -0.5

C[C@@H]1CN([C@H](C)CO)C(=O)c2cccc(NC(=O)c3ccncc3)c2O[C@@H]1CN(C)S(=O)(=O)c1ccc(F)cc1
  A1 apoptosis 2: -0.3

Cc1ccc(S(=O)(=O)N(C)C[C@@H]2Oc3ccc(NC(=O)Nc4ccc5c(c4)OCO5)cc3C(=O)N([C@H](C)CO)C[C@H]2C)cc1
  A1 apoptosis 2: 1.3

C[C@@H]1CN([C@@H](C)CO)C(=O)c2cc(NC(=O)c3ccccc3)ccc2O[C@@H](C)CCCCO[C@@H]1CN(C)S(=O)(=O)c1cn(C)cn1
  A1 apoptosis 2: -0.2

C[C@@H]1CN([C@H](C)CO)C(=O)c2cc(NC(=O)CCCN(C)C)ccc2O[C@@H]1CN(C)S(=O)(=O)c1ccc(F)cc1
  A1 apoptosis 2: 0.2

C[C@@H]1CN([C@@H](C)CO)C(=O)Cc2cc(NC(=O)NC3CCCCC3)ccc2O[C@H]1CN(C)C(=O)NC1CCCCC1
  A1 apoptosis 2: -1.0

C[C@H]1CN([C@@H](C)CO)C(=O)CCCn2cc(nn2)CO[C@H]1CN(C)C(=O)Oc1ccccc1
  A1 apoptosis 2: -0.3

Cc1noc(C)c1S(=O)(=O)Nc1ccc2c(c1)CC(=O)N([C@H](C)CO)C[C@H](C)[C@@H](CN(C)Cc1ccncc1)O2
  A1 apoptosis 2: -0.1

C[C@@H]1CN([C@H](C)CO)C(=O)c2cc(NC(=O)C3CCCCC3)ccc2O[C@@H](C)CCCCO[C@H]1CN(C)C(=O)Nc1ccccc1
  A1 apoptosis 2: 2.9

C[C@@H]1CCCCO[C@H](CN(C)CC2CC2)[C@H](C)CN([C@@H](C)CO)C(=O)c2cc(NC(=O)Nc3ccc4c(c3)OCO4)ccc2O1
  A1 apoptosis 2: -0.6

CNC[C@@H]1Oc2c(NS(=O)(=O)c3ccc(C)cc3)cccc2C(=O)N([C@@H](C)CO)C[C@@H]1C
  A1 apoptosis 2: 0.7

C[C@@H]1CN([C@H](C)CO)C(=O)c2cc(NS(=O)(=O)c3cn(C)cn3)ccc2O[C@@H](C)CCCCO[C@@H]1CN(C)S(=O)(=O)c1cn(C)cn1
  A1 apoptosis 2: 0.9

C[C@H](CO)N1C[C@H](C)[C@@H](CN(C)S(=O)(=O)c2ccccc2)OCCCC[C@H](C)Oc2ccc(NC(=O)CCCN(C)C)cc2C1=O
  A1 apoptosis 2: -0.5

Cc1noc(C)c1NC(=O)Nc1ccc2c(c1)C(=O)N([C@H](C)CO)C[C@H](C)[C@@H](CN(C)C(=O)Nc1ccccc1)OCCCC[C@@H](C)O2
  A1 apoptosis 2: 0.2

Filtered by structure: the entries above with nitrogen in an aromatic ring
C[C@@H]1CCCCO[C@@H](CN(C)C(=O)Cc2ccccc2)[C@@H](C)CN([C@H](C)CO)C(=O)c2cc(NC(=O)c3ccncc3)ccc2O1
  A1 apoptosis 2: -0.8

C[C@@H]1CN([C@H](C)CO)C(=O)c2cc(NS(=O)(=O)c3cn(C)cn3)ccc2O[C@@H](C)CCCCO[C@H]1CN(C)C(=O)Nc1ccccc1
  A1 apoptosis 2: -1.0

C[C@@H]1CN([C@H](C)CO)C(=O)c2cccc(NC(=O)c3ccncc3)c2O[C@@H]1CN(C)S(=O)(=O)c1ccc(F)cc1
  A1 apoptosis 2: -0.3

C[C@@H]1CN([C@@H](C)CO)C(=O)c2cc(NC(=O)c3ccccc3)ccc2O[C@@H](C)CCCCO[C@@H]1CN(C)S(=O)(=O)c1cn(C)cn1
  A1 apoptosis 2: -0.2

C[C@H]1CN([C@@H](C)CO)C(=O)CCCn2cc(nn2)CO[C@H]1CN(C)C(=O)Oc1ccccc1
  A1 apoptosis 2: -0.3

Cc1noc(C)c1S(=O)(=O)Nc1ccc2c(c1)CC(=O)N([C@H](C)CO)C[C@H](C)[C@@H](CN(C)Cc1ccncc1)O2
  A1 apoptosis 2: -0.1

C[C@@H]1CN([C@H](C)CO)C(=O)c2cc(NS(=O)(=O)c3cn(C)cn3)ccc2O[C@@H](C)CCCCO[C@@H]1CN(C)S(=O)(=O)c1cn(C)cn1
  A1 apoptosis 2: 0.9

Cc1noc(C)c1NC(=O)Nc1ccc2c(c1)C(=O)N([C@H](C)CO)C[C@H](C)[C@@H](CN(C)C(=O)Nc1ccccc1)OCCCC[C@@H](C)O2
  A1 apoptosis 2: 0.2

(cont.)
CNC[C@@H]1Oc2ccc(NC(=O)c3ccncc3)cc2C(=O)N([C@@H](C)CO)C[C@H]1C
  A1 apoptosis 2: -1.0

Cc1ccccc1S(=O)(=O)N(C)C[C@H]1OCc2cnnn2CCCC(=O)N([C@H](C)CO)C[C@@H]1C
  A1 apoptosis 2: 0.5

Cc1noc(C)c1S(=O)(=O)Nc1cccc2c1O[C@@H](CN(C)CC1CCCCC1)[C@@H](C)CN([C@@H](C)CO)C2=O
  A1 apoptosis 2: -1.2

C[C@H](CO)N1C[C@H](C)[C@H](CN(C)CC2CC2)Oc2c(NS(=O)(=O)c3cn(C)cn3)cccc2C1=O
  A1 apoptosis 2: -1.6

C[C@@H]1CN([C@@H](C)CO)C(=O)CCCn2nncc2CO[C@@H]1CN(C)Cc1ccccc1C(=O)O
  A1 apoptosis 2: -0.1

COc1ccc([Si](C)(C)[C@@H]2[C@@H](CCn3cc(CCO)nn3)O[C@]3(C(=O)N(C)c4c(Br)cc(C)cc43)[C@H]2C)cc1
  A1 apoptosis 2: 1.4

CNC[C@@H]1Oc2ccc(NC(=O)Cn3cnnn3)cc2CC(=O)N([C@H](C)CO)C[C@@H]1C
  A1 apoptosis 2: -0.2

COc1ccc(S(=O)(=O)Nc2cccc3c2O[C@H](CN(C)Cc2ccc(C(F)(F)F)cc2)[C@H](C)CN([C@@H](C)CO)C3=O)cc1
  A1 apoptosis 2: 0.1

Cc1noc(C)c1NC(=O)Nc1ccc2c(c1)C(=O)N([C@@H](C)CO)C[C@H](C)[C@H](CN(C)S(=O)(=O)c1ccccc1)O2
  A1 apoptosis 2: 0.1

C[C@H]1CN([C@@H](C)CO)C(=O)c2cccc(NS(=O)(=O)c3cn(C)cn3)c2O[C@@H]1CN(C)Cc1ccc(C(F)(F)F)cc1
  A1 apoptosis 2: 1.6

C[C@@H]1CN([C@H](C)CO)C(=O)Cc2cc(NC(=O)NC3CCCCC3)ccc2O[C@@H]1CN(C)S(=O)(=O)c1ccc(Cl)cc1
  A1 apoptosis 2: 1.7

Cc1ccc(CN(C)C[C@@H]2OCc3cn(nn3)CCCC(=O)N([C@@H](C)CO)C[C@H]2C)cc1
  A1 apoptosis 2: 0.6

Cc1noc(C)c1NC(=O)Nc1cccc2c1O[C@@H](CN(C)C(=O)Nc1ccccc1)[C@@H](C)CN([C@H](C)CO)C2=O
  A1 apoptosis 2: 1.1

C[C@@H]1CCCCO[C@@H](CN(C)C(=O)Cc2ccccc2)[C@H](C)CN([C@@H](C)CO)C(=O)c2cc(NS(C)(=O)=O)ccc2O1
  A1 apoptosis 2: -0.1

CC(=O)n1cc([C@@H]2C=C(C(N)=O)O[C@H](OCCCCO)C2)c2ccccc21
  A1 apoptosis 2: 0.3

C[C@H]1CN([C@@H](C)CO)C(=O)c2cccc(NC(=O)Nc3ccccc3)c2O[C@@H]1CN(C)Cc1ccc(C(F)(F)F)cc1
  A1 apoptosis 2: -1.8

COc1ccc(S(=O)(=O)Nc2ccc3c(c2)C(=O)N([C@@H](C)CO)C[C@H](C)[C@@H](CN(C)CC2CC2)O3)cc1
  A1 apoptosis 2: -0.5

C[C@@H]1CCCCO[C@@H](CN(C)C)[C@H](C)CN([C@H](C)CO)C(=O)c2cc(NC(=O)Nc3ccc(C(F)(F)F)cc3)ccc2O1
  A1 apoptosis 2: 0.6

C[C@H](CO)N1C[C@H](C)[C@H](CN(C)Cc2ccc(Oc3ccccc3)cc2)OCc2cn(nn2)CCCC1=O
  A1 apoptosis 2: -0.3

Cc1noc(C)c1NC(=O)N(C)C[C@@H]1OCCCC[C@H](C)Oc2ccc(NC(=O)CCC(F)(F)F)cc2C(=O)N([C@@H](C)CO)C[C@@H]1C
  A1 apoptosis 2: 0.4

Part of the list above in order of number of heavy atoms, smallest number first:
Cc1noc(C)c1NC(=O)Nc1cccc2c1O[C@@H](CN(C)C(=O)Nc1ccccc1)[C@@H](C)CN([C@H](C)CO)C2=O
  A1 apoptosis 2: 1.1

C[C@@H]1CN([C@H](C)CO)C(=O)Cc2cc(NC(=O)NC3CCCCC3)ccc2O[C@@H]1CN(C)S(=O)(=O)c1ccc(Cl)cc1
  A1 apoptosis 2: 1.7

C[C@@H]1CCCCO[C@@H](CN(C)C)[C@H](C)CN([C@H](C)CO)C(=O)c2cc(NC(=O)Nc3ccc(C(F)(F)F)cc3)ccc2O1
  A1 apoptosis 2: 0.6

Later entries
COc1ccc(NC(=O)Nc2ccc3c(c2)CC(=O)N([C@@H](C)CO)C[C@H](C)[C@H](CN(C)S(=O)(=O)c2ccc(C)cc2)O3)cc1
  A1 apoptosis 2: 1.9

C[C@H]1CN([C@@H](C)CO)C(=O)CCCn2cc(nn2)CO[C@@H]1CN(C)S(=O)(=O)c1cccc(C#N)c1
  A1 apoptosis 2: 0.2

C[C@@H]1CN([C@H](C)CO)C(=O)Cc2cc(NC(=O)Nc3ccc(F)cc3)ccc2O[C@@H]1CN(C)CC1CCCCC1
  A1 apoptosis 2: 2.0

C[C@@H]1CN([C@@H](C)CO)C(=O)c2cc(N(C)C)ccc2O[C@H]1CN(C)C(=O)NC1CCCCC1
  A1 apoptosis 2: 0.0

Cc1ccc(S(=O)(=O)N(C)C[C@@H]2OCc3cn(nn3)CCCC(=O)N([C@@H](C)CO)C[C@H]2C)cc1
  A1 apoptosis 2: 1.0

COc1ccc(CN(C)C[C@H]2OCCCC[C@H](C)Oc3ccc(NC(=O)NC(C)C)cc3C(=O)N([C@H](C)CO)C[C@H]2C)cc1
  A1 apoptosis 2: 0.0

O=C(N/N=C/c1ccc(OCc2ccccc2)cc1O)c1ccccc1O
  A1 apoptosis 2: -1.6

C[C@H](CO)N1C[C@H](C)[C@H](CN(C)CC2CCCCC2)Oc2ccc(NS(=O)(=O)c3ccccc3)cc2CC1=O
  A1 apoptosis 2: 0.8

C[C@@H]1CN([C@H](C)CO)C(=O)c2cc(NC(=O)C3CC3)ccc2O[C@@H]1CN(C)C
  A1 apoptosis 2: 0.3

C[C@H](CO)N1C[C@H](C)[C@H](CN(C)C(=O)Nc2cccc3ccccc23)Oc2ncc(-c3ccc(F)cc3)cc2C1=O
  A1 apoptosis 2: 1.4

COCCOC(=O)N1C(=O)[C@@]2(c3ccccc31)[C@H](C(=O)N1CCc3cc(OC)c(OC)cc3C1)[C@H]1C(=O)O[C@H](c3ccccc3)[C@H](c3ccccc3)N1[C@@H]2c1ccccc1OCCO
  A1 apoptosis 2: -0.4

C[C@H](CO)N1C[C@H](C)[C@@H](CN(C)S(=O)(=O)c2ccccc2)Oc2ccc(NC(=O)C3CCCCC3)cc2CC1=O
  A1 apoptosis 2: 1.4

O=C(Nc1ccccc1)N[C@@H](Cc1ccccc1)Cn1cc(CN2C(=O)COC[C@H]2c2ccccc2)nn1
  A1 apoptosis 2: -0.7

C[C@@H]1CCCCO[C@H](CN(C)S(=O)(=O)c2cn(C)cn2)[C@H](C)CN([C@H](C)CO)C(=O)c2cc(NS(C)(=O)=O)ccc2O1
  A1 apoptosis 2: 0.4

COc1ccc(COC[C@@]23Oc4ccccc4[C@@H](NC(=O)N2C)[C@H]3COC(=O)c2ccc([N+](=O)[O-])cc2)cc1
  A1 apoptosis 2: 0.1

O=C(C1=C[C@H](c2ccc(C(F)(F)F)cc2)C[C@H](OCc2ccc(CO)cc2)O1)N1CCCC1
  A1 apoptosis 2: -1.3

CCN(CC)c1ccc(/C=N/NC(=O)CCCCCCC(=O)Nc2ccccc2O)c(O)c1
  A1 apoptosis 2: 0.4

C[C@@H]1CCCCO[C@@H](CN(C)Cc2ccncc2)[C@@H](C)CN([C@@H](C)CO)C(=O)c2cc(NC(=O)Nc3ccc(F)cc3)ccc2O1
  A1 apoptosis 2: 0.0

Cc1noc(C)c1NC(=O)N(C)C[C@@H]1Oc2ccc(NS(=O)(=O)c3cn(C)cn3)cc2CC(=O)N([C@@H](C)CO)C[C@@H]1C
  A1 apoptosis 2: -0.7

C[C@@H]1CCCCO[C@H](CN(C)C(=O)Nc2cccc3ccccc23)[C@@H](C)CN([C@@H](C)CO)C(=O)c2cc(NC(=O)Nc3ccc(F)cc3)ccc2O1
  A1 apoptosis 2: 0.3

C[C@H](CO)N1C[C@H](C)[C@H](CN(C)Cc2ccc(C(=O)O)cc2)OCc2cnnn2CCCC1=O
  A1 apoptosis 2: 0.6

COc1ccc(NC(=O)N(C)C[C@@H]2Oc3c(NC(=O)C4CCOCC4)cccc3C(=O)N([C@H](C)CO)C[C@@H]2C)cc1
  A1 apoptosis 2: 0.1

Screening data (PubChem BioAssay)

Not all compounds are listed; the hit share may differ from the screen's.
